Source: PubChem (National Center for Advancing Translational Sciences (NCATS))
RE007 growth inh: less growth of the S. pombe RE007 Vpr strain; S. pombe RE007 Vpr strain, BacTiter-Glo ATP luminescence, 24 h; control for the full effect not named in the record; Potency, µM (titrated, usually from 92.2 µM), for inactives: top-dose activity change, negative = less growth; 360,000 compounds, 0.21% hits; AID 651644; active = well fitted falling curve with a large enough effect; inconclusive = small, poorly fitted or top-dose-only effect; inactive = no such curve, though single readings can be large or run the other way;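 further: nearly all actives have a fitted effect of over 50% in size; the assay follows cell death caused by Vpr and the record does not say whether a fall means rescue or toxicity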
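Fission yeast strain RE007, carrying one chromosomally integrated HIV-1 vpr copy, was seeded at OD 0.01 in PMG+AL medium with 23 nL pinned compound. After 24 h at 30 °C and 99% humidity, viability was read by BacTiter-Glo luminescence.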
StopGo reporter: lowers the luciferase signal of an FMDV 2A StopGo reporter; Potency, µM (series often up to 57.9 µM), without a hit: at the highest dose signal change, negative = less light; human cells with a luciferase reporter of 2A StopGo recoding; control for the full effect not named in the record; 410,000 compounds, 1.2% hits; active = well fitted falling curve with a large enough effect; inconclusive = small, poorly fitted or top-dose-only effect; inactive = no such curve, though single readings can be large or run the other way; tested in HEK293T cells; further: nearly all actives have a fitted effect of over 45% in size; luciferase light after 4 h
Active calls of the source: *; ? = inconclusive; [ ] = remark or other dose. On the % scale 0 is the no-effect control and ±100 the full control effect; potency means the concentration at half of the fitted maximal effect. Some of the compounds tested; rates above refer to the full screens.

SMILES	RE007 growth inh	StopGo reporter
CC(C)(C)c1ccc(S(=O)(=O)NC(=O)C2(C)CCN2C(=O)Cc2cc(F)ccc2F)cc1 (stereo not drawn)	3%[18.4 µM]	-2%
CC1(C(=O)NS(=O)(=O)Cc2ccccc2C(F)(F)F)CCN1C(=O)C/C=C/c1ccccc1 (stereo not drawn)	25%[18.4 µM]	-12%
O=C(CN1CCCC1)Nc1nc(-c2ccc(Cl)cc2)cs1	-27%	23%
C#CCNC(=O)C[C@@H]1C[C@@]2(C(=O)OC)CCCCC=C2N(CCC2=CCCCC2)C1=O	-18%	-10%
NC(c1csc(Nc2ccc(C(=O)c3ccccc3)cc2)n1)c1ccccc1Cl (stereo not drawn)	-5%[18.4 µM]	?
Cc1ccc([C@H]2N[C@]3(CCCN(Cc4ccc(C(F)(F)F)cc4)C3=O)[C@H]3C(=O)N(Cc4ccccc4)C(=O)[C@@H]23)cc1	11%	?
CC1OC(CCc2cccc(Cl)c2)Cc2[nH][nH]c(=O)c21 (stereo not drawn)	-20%	22%
O=C(COC(=O)c1cccc(F)c1)Nc1cccc(S(=O)(=O)N2CCCCC2)c1	-10%	-24%
COc1ccc(OC)c2c1CCC1(C2)NC(=O)NC1=O (stereo not drawn)	2%	5%
COc1ccc(CC(=O)NCCc2ccc3c(c2)OCO3)cc1OC	8%	-5%
O=S(=O)(N[C@@H]1CC[C@H](CCNS(=O)(=O)c2ccccc2Cl)O[C@@H]1CO)c1ccccc1	2%	-1%
O=C(COC(=O)C1COc2ccccc2O1)c1ccccc1 (stereo not drawn)	-3%	-22%
CC(=O)Nc1ccc(S(=O)(=O)N(CC(=O)NCC2CCCO2)Cc2ccccc2Cl)cc1 (stereo not drawn)	14%	-5%
O=C(Nc1nnc(-c2ccc(Cl)s2)o1)C1CCCCC1	15%	30%[activator]
c1ccc(COc2ncnc3c2ncn3CCCNCCN2CCOCC2)cc1	5%	-3%
COc1cccc(C(C)(O)c2nc(/C=C/c3ccccc3)cs2)c1 (stereo not drawn)	-11%	?
Cc1cn([C@H]2C[C@H](O)[C@@H](/C=C/C(=O)NCCc3ccc4c(c3)OCO4)O2)c(=O)[nH]c1=O	1%	-22%
CCCC(=O)N1CCC1(C)C(=O)NCc1ccc(SC)cc1 (stereo not drawn)	29%[18.4 µM]	7%
O=C(Nc1ccc(F)cc1)C(c1cc2ccccc2o1)N1CCN(CC(=O)N2CCCC2)CC1 (stereo not drawn)	?	-2%
O=C(Nc1ccc(Nc2ccccc2)cc1)c1ccc(Cl)cc1[N+](=O)[O-]	15%	-22%
CCNC(=O)C1(C)CCN1CCS(=O)(=O)c1ccc(C)cc1 (stereo not drawn)	11%	-13%
CN(Cc1cccc(-c2ccncc2)c1)C(=O)Oc1ccccc1Cc1ccccc1	-24%	22µM*
CCCCNC(=O)c1nc(C2CCN(S(=O)(=O)c3c(OC)cccc3OC)CC2)oc1-c1ccccc1	0%	-20%
CC1=C(C(=O)N2CCOCC2)CC(CC(=O)NC2CCCC2)C(=O)N1CCCN1CCCC1=O (stereo not drawn)	-6%	-20%
CCOC(=O)C(=O)N(C)c1c(CC)nc2c(OCc3ccccc3C)cccn12	-6%[18.4 µM]	-15%
CCOC(=O)CC1c2ccccc2-n2nncc2CN1C (stereo not drawn)	-16%	-23%
CCCCn1nnnc1C1(C)CCC(=O)N1Cc1ccc(OC)c(OC)c1 (stereo not drawn)	3%	-20%
COc1ccc2nc(-c3ccc(CN4CCC(n5c(=O)[nH]c6ccccc65)CC4)cc3)c(-c3ccccc3)nc2c1	-24%	?
Cc1nc2ccc(C(=O)N3c4ccccc4N=C(c4ccc5c(c4)OCO5)C3C(=O)NCc3ccccc3)cc2[nH]1 (stereo not drawn)	-1%	14%
Cc1cc(OC(=O)Nc2ccccc2)ccc1Cl	2%	0%
CCc1nc2ccc(C(=O)NC(C)(C)C)cn2c1N(CC)Cc1cccc(Br)c1	-26%	0%
COc1ccc(-c2[nH][nH]c(=O)c2NC(=O)c2ccc([N+](=O)[O-])cc2)cc1	-1%	2%
Cc1cc(C)c(C)c(S(=O)(=O)N2CCNC(=O)C2)c1C	2%	-19%
COc1ccc(C(=O)NCC(=O)OCC(=O)c2c[nH]c3ccccc23)cc1	-1%	-7%
O=C(OCc1cn([C@@H]2C[C@H](c3ccc(Cl)cc3)N(CC3CCCCC3)C[C@H]2O)nn1)c1ccccc1	-3%	4%
CC1(C(=O)NS(=O)(=O)C2CC2)CCCN(C(=O)c2ccc(F)c(Cl)c2)C1 (stereo not drawn)	-1%	-10%
O=C(c1ccccc1)N1CCN(c2cc(-c3ccccc3)nc3cc(-c4cccc(Cl)c4)nn23)CC1	22%	25µM*
Cc1cc2nc(C3CCCCC3)c(Cc3cccc(Cl)c3)n2c(C)c1Br	-14%	-18%
CCN(CC)C(=O)C1=C(C)N(Cc2ccc(OC)cc2)C(=O)C(CC(=O)NCCCCc2ccccc2)C1 (stereo not drawn)	-10%	-16%
CC(=O)c1cccc(-c2ccnc3c2CC(C(=O)Nc2ccc(Cl)c(C(F)(F)F)c2)O3)c1 (stereo not drawn)	1%	-9%

Reformatted: results already given.
| compound | RE007 growth inh | StopGo reporter |
| --- | --- | --- |
| Cc1cc(OC(=O)Nc2ccccc2)ccc1Cl | 2% | 0% |
| CCc1nc2ccc(C(=O)NC(C)(C)C)cn2c1N(CC)Cc1cccc(Br)c1 | -26% | 0% |

Continuation.
SMILES	RE007 growth inh	StopGo reporter
COCCNC(=O)C1(C)CCCN(C(=O)c2ccc(C#N)cc2)C1 (stereo not drawn)	9%	-17%
COc1cc(C=NN2CCCCC2)cc(OC)c1OC	-17%	-23%
Cc1ccc(S(=O)(=O)N2[C@H](C(C)C)[C@H]3[C@H]4C(=O)N(c5ccccc5)C(=O)[C@H]4CC(=O)[C@H]3[C@@H]2c2ccccc2)cc1	14%	-2%
CC(=O)Nc1cnc(-c2ccccc2C(F)(F)F)cn1	2%[18.4 µM]	8%
N#Cc1cccnc1N1CCN(C(=O)c2[nH]c(C(F)(F)F)nc2-c2ccccc2)CC1	-2%	-18%
CCOC(=O)[C@]12CCC=C1N(Cc1ccco1)C(=O)[C@H](CC(=O)NCCC(C)C)C2	-4%	35%[activator]
O=C(Nc1cc(Cl)ccc1N1CCOCC1)c1ccc2c(c1)OCO2	2%	-20%
C[C@H](CO)N1C[C@H](C)[C@@H](CN(C)Cc2ccc(-c3ccccc3)cc2)OCc2cnnn2CCCC1=O	-2%	-17%
O=C(c1cccs1)N1C[C@@H](n2cc(-c3ccc(F)cc3)nn2)[C@H](O)C[C@@H]1c1ccccc1	7%	?
Cc1ccc(Cn2c(C(C)Nc3nc(-c4ccc(F)cc4)cs3)nc3cc(C(=O)NCCCO)ccc32)cc1 (stereo not drawn)	-3%	-5%
Cc1ccc(N=Cc2c(O)n(-c3ccc(C)cc3)c(=O)[nH]c2=O)cc1	12%	14%
Nc1ccn([C@@H]2O[C@H](C(=O)N(CCC3=CCCCC3)CC3CC3)[C@@H](O)[C@H]2O)c(=O)n1	-12%	-5%
COc1cc(OC)cc(OC2(C)CCN(Cc3ccc(OC(C)C)cc3)C2)c1 (stereo not drawn)	-6%	-19%
CC1(C(=O)NS(=O)(=O)Cc2cccc(Cl)c2)CCN1C(=O)Cc1ccc(Cl)cc1Cl (stereo not drawn)	4%	-2%
COC(=O)[C@@]12C[C@@H](CC(=O)N3CCN(C(=O)C4CC4)CC3)C(=O)N(Cc3ccccc3)C1=CCC(C)(C)C2	3%	-20%
OC(c1ccc(Cl)cc1)c1ncc(-c2ccc(Cl)cc2)[nH]1 (stereo not drawn)	-26%	9%
CC1C(=O)N(Cc2cn(Cc3ccco3)nn2)CCS(=O)(=O)N1Cc1ccc(-c2cccnc2)cc1 (stereo not drawn)	-14%	-11%
CCc1nc2c(OCCOc3ccc(F)cc3)cccn2c1N(C)C(=O)C(C)C	4%	-27%
CCCCCC(=O)OCc1ccc(C2=CC(=O)CC(C)(C)C2=O)cc1	-7%	0%
C#Cc1ccc(NC(=O)C2(C)CCN2C(=O)C2(c3ccccc3)CC2)cc1 (stereo not drawn)	-4%	-13%
COC(=O)c1ccc2nc(-c3ccc(C#N)cc3)c(Cc3ccsc3)n2c1	-27%	?
CC(=O)NC(c1ccccc1)c1nc(-c2csc3ccccc23)cs1 (stereo not drawn)	43%	-7%
COc1cccc(C(C(=O)NCc2ccccc2)N2CCN(c3cccc(C)c3C)CC2)c1OC (stereo not drawn)	10%	-14%
COc1cccc(CN2CCC2(C)C(=O)Nc2ccc3c(c2)CCN3C(C)=O)c1F (stereo not drawn)	-2%[18.4 µM]	-5%
Cc1cc2oc3ccc(NCCCN4CCOCC4)cc3c(=O)c2cc1C	6%	-2%
CCOC(=O)C1(C)CCN1C(=O)c1cc(OC)c(OC)c(OC)c1 (stereo not drawn)	41%[18.4 µM]	-23%
COc1cc(CNC(=O)c2cc(-c3ccc(F)cc3OC)n[nH]2)cc(OC)c1	-7%	-10%
Cc1ccc(S(=O)(=O)N2C[C@H]3n4c(=O)ccc(=O)n4C[C@H](OC(=O)Nc4cccs4)[C@@]3(O)C2)cc1	-21%	?
O=C(NCc1ccccn1)C1CCN(C2CCN(Cc3cccc(F)c3)CC2)CC1	-4%	-28%
COc1cccc(C(O)c2nc(-c3cccc(C(F)(F)F)c3)cs2)c1 (stereo not drawn)	?	0%
Cc1ccc(CN2CCC[C@]3(N[C@H](c4ccc(C)cc4)[C@@H]4C(=O)N(C)C(=O)[C@@H]43)C2=O)cc1	2%	?
O=C(NCC1CCCCC1)c1csc([C@@H]2C[C@H](O)[C@@H](CO)O2)n1	7%[18.4 µM]	-4%
CC(O)(c1cccnc1)c1nc(-c2ccoc2)cs1 (stereo not drawn)	-4%[18.4 µM]	-11%
CC1(C(=O)NS(=O)(=O)c2ccc(C#N)cc2)CCN1C(=O)CC1CCCC1 (stereo not drawn)	8%	-3%
COc1ccc(NC(=O)Cn2c([N+](=O)[O-])cnc2C)c(OC)c1	-15%	-11%
CC(=NO)c1cc(Br)c2cccc3c2c1CC3	-16%	-11%
CCOC(=O)C1(C)CCCN(C(=O)CCc2ccccc2)C1 (stereo not drawn)	2%	-16%
Cc1ccc(CNC(=O)c2ccc(S(=O)(=O)N3CCCC3)cc2)cc1	-16%	?
CCCS(=O)(=O)NC(=O)C1(C)CCCN(C(=O)c2ccccc2OC)C1 (stereo not drawn)	6%	-22%
COC(=O)C1=C(CCc2ccccc2)NC(=O)NC1c1ccc(C#N)cc1 (stereo not drawn)	3%	-25%

Two of these compounds in a different format.
COc1ccc(OC)c2c1CCC1(C2)NC(=O)NC1=O (stereo not drawn)
  RE007 growth inh = 2%
  StopGo reporter = 5%
CCNC(=O)C1(C)CCN1CCS(=O)(=O)c1ccc(C)cc1 (stereo not drawn)
  RE007 growth inh = 11%
  StopGo reporter = -13%

Three of the compounds above, field by field:
Cc1cc2oc3ccc(NCCCN4CCOCC4)cc3c(=O)c2cc1C
  RE007 growth inh: 6%
  StopGo reporter: -2%
O=C(NCC1CCCCC1)c1csc([C@@H]2C[C@H](O)[C@@H](CO)O2)n1
  RE007 growth inh: 7%[18.4 µM]
  StopGo reporter: -4%
COc1cccc(C(O)c2nc(-c3cccc(C(F)(F)F)c3)cs2)c1 (stereo not drawn)
  RE007 growth inh: ?
  StopGo reporter: 0%

Additional results
SMILES	RE007 growth inh	StopGo reporter
O=C1C(c2ccccc2)CN1Cc1ccccc1 (stereo not drawn)	-4%[18.4 µM]	20%
O=C(Cc1ccc(Cl)cc1)N1CCc2ccccc2C1	-7%	57%[activator]
CC1CCN(S(=O)(=O)c2cc(C(=O)N3CCN(c4ccccc4)CC3)ccc2Br)CC1	19%	-19%
CCCCN(C)C(=O)c1sc(=O)n(Cc2c(C)noc2C)c1C	0%[18.4 µM]	-16%
Cc1cccc(C(=O)NC(C)c2ccc(-n3ccnc3)cc2)c1C (stereo not drawn)	-3%	-13%
COc1ccc(C(=O)C2CCCN(C(=O)Cn3nc(C)nc3C)C2)cc1F (stereo not drawn)	-12%	-28%
COc1ccccc1-c1cnc(C(O)c2cccc(CN3CCCCC3)c2)[nH]1 (stereo not drawn)	-12%	-9%
COc1ccc(NC(=O)C(c2cc3ccccc3o2)n2c(=O)c(-c3cc4ccccc4[nH]3)nc3ccccc32)cc1 (stereo not drawn)	3%	26%
CCCNC(=O)C1(C)CCCN(Cc2cc(-c3ccccc3)n(C)n2)C1 (stereo not drawn)	?	-9%
CC1=CC(=O)[C@@H](OC(=O)Nc2ccc(C)cc2)[C@@H](c2ccccc2Br)N1C	8%	-8%
COc1ccc(OC(C)C(=O)NC2CCCCCCC2)cc1 (stereo not drawn)	8%	-23%

Taken from above.
`COc1ccc(C(=O)C2CCCN(C(=O)Cn3nc(C)nc3C)C2)cc1F` (stereo not drawn) in StopGo reporter = -28%
`CC1CCN(S(=O)(=O)c2cc(C(=O)N3CCN(c4ccccc4)CC3)ccc2Br)CC1` in StopGo reporter = -19%
`CC1=CC(=O)[C@@H](OC(=O)Nc2ccc(C)cc2)[C@@H](c2ccccc2Br)N1C` in RE007 growth inh = 8%
